Screening results: PubChem BioAssay, Broad Institute
FGF22 binding: binders of human FGF22 protein, primary screen, FGF22 synaptogenesis inhibitor project, biophysical, thermal shift, single point; Fibroblast growth factor 22 (Homo sapiens), Q9HCT0; recombinant FGF22 thermal shift, SYPRO orange fluorescence; percent of sucrose octasulfate shift, DMSO zero; calls only at 9.99 µM; 340,000 tested, 1.5% active;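 active = melting point raised past a set limit in the mean and every replicate; three in four hits are not shown here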
Target sequence (Q9HCT0 whole entry, looked up): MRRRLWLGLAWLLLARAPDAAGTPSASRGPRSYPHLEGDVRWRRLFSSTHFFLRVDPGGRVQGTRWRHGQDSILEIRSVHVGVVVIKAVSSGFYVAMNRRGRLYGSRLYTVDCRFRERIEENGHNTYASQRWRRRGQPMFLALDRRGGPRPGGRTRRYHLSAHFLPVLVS
Calls only; i = inactive. Some of the compounds tested; count on the stated rates, not on these rows.

SMILES	FGF22 binding
C[C@@H]1CN([C@H](C)CO)C(=O)c2cc(NC(=O)Nc3ccc4c(c3)OCO4)ccc2O[C@H]1CN(C)Cc1ccc(C(=O)O)cc1	i
Cc1noc(C)c1S(=O)(=O)Nc1ccc2c(c1)CC(=O)N([C@@H](C)CO)C[C@H](C)[C@@H](CN(C)Cc1ccc(Cl)c(Cl)c1)O2	i
C[C@H]1CN([C@@H](C)CO)C(=O)Cc2cc(NC(=O)c3ccncc3)ccc2O[C@@H]1CN(C)Cc1ccc(-c2ccccc2)cc1	i
COCC(=O)N(C)C[C@@H]1Oc2ncc(C#Cc3ccncc3)cc2C(=O)N([C@H](C)CO)C[C@@H]1C	i
C[C@H](CO)N1C[C@H](C)[C@@H](CN(C)Cc2ccc(C(=O)Nc3ccccc3N)cc2)Oc2c(NS(=O)(=O)c3ccccc3)cccc2C1=O	i
C[C@@H]1CCCCO[C@H](CN(C)C(=O)CCC(F)(F)F)[C@H](C)CN([C@H](C)CO)C(=O)c2cc(NS(=O)(=O)c3ccc(F)cc3)ccc2O1	i
COc1ccc(-c2ccc3c(c2)[C@@H]2[C@@H](CCN2C(=O)C2CCOCC2)[C@H](CO)N3C)cc1	i
C/C=C/c1ccc([C@@H]2[C@@H](CO)N(C(C)=O)[C@H]2CN(CC)C(=O)CN(C)C)cc1	i
C[C@@H]1CN([C@@H](C)CO)C(=O)c2cccc(NC(=O)c3ccncc3)c2O[C@H]1CN(C)C(=O)Nc1ccc(F)cc1	i
C[C@@H]1CN([C@H](C)CO)C(=O)c2cccc(NC(=O)Nc3ccc(C(F)(F)F)cc3)c2O[C@@H]1CN(C)S(=O)(=O)c1cccs1	i
Cc1cccc(S(=O)(=O)N[C@@H]2CC[C@H](CCNS(=O)(=O)c3ccccc3F)O[C@@H]2CO)c1	i
C[C@H](CO)N1C[C@H](C)[C@H](CN(C)S(=O)(=O)c2ccc(Cl)cc2)OCCCC[C@H](C)Oc2ccc(NS(C)(=O)=O)cc2C1=O	i

Part of the list above in order of length of the SMILES, descending:
SMILES	FGF22 binding
C[C@H](CO)N1C[C@H](C)[C@H](CN(C)S(=O)(=O)c2ccc(Cl)cc2)OCCCC[C@H](C)Oc2ccc(NS(C)(=O)=O)cc2C1=O	i
COCC(=O)N(C)C[C@@H]1Oc2ncc(C#Cc3ccncc3)cc2C(=O)N([C@H](C)CO)C[C@@H]1C	i
C/C=C/c1ccc([C@@H]2[C@@H](CO)N(C(C)=O)[C@H]2CN(CC)C(=O)CN(C)C)cc1	i

Next section.
SMILES	FGF22 binding
COc1ccc2c3c(n(C)c2c1)[C@H](CO)N(C)CC31CN(S(=O)(=O)c2cccc(C)c2)C1	i
CO[C@H]1CN(C)C(=O)c2cc(NS(C)(=O)=O)ccc2OC[C@H](C)N(C(=O)c2ccc3c(c2)OCO3)C[C@H]1C	i
O=C(C1CCCCC1)N1C[C@@H]2[C@H](c3ccccc31)[C@H](CO)N2C(=O)c1ccccc1F	i
COc1ccc(CN(C)C[C@@H]2Oc3ccc(NC(=O)Nc4ccc(OC)cc4)cc3CC(=O)N([C@H](C)CO)C[C@@H]2C)cc1	i
CN(C)C(=O)C[C@H]1CC[C@@H](NC(=O)C2CCOCC2)[C@H](CO)O1	i
CCC(=O)N1[C@@H]2c3ccc(C4=CCCCC4)c(=O)n3C[C@H]1[C@H](CO)[C@H]2C(=O)N[C@H](C)c1ccccc1	i
CCS(=O)(=O)Nc1ccc2c(c1)C(=O)N(C)[C@@H]1CC[C@H](CC(=O)N[C@@H]3CCN(Cc4ccccc4)C3)O[C@H]1CO2	i
COc1ccc(CN(C)C[C@H]2OCCCC[C@H](C)Oc3ccc(N(C)C)cc3C(=O)N([C@H](C)CO)C[C@@H]2C)cc1	i
COc1ccc2c3c(n(C)c2c1)[C@H](CO)N(C(=O)c1ccc(F)cc1)CC31CN(C(=O)Nc2ccc(F)cc2)C1	i
CCC(=O)Nc1ccc2c(c1)C(=O)N(C)C[C@H](OC)[C@H](C)CN(C(=O)c1ccc(F)cc1)[C@H](C)CO2	i
COc1cccc(-c2ccc3c(c2)[C@@H]2[C@@H](CCN2C(=O)c2ccccn2)[C@H](CO)N3)c1	i
C[C@@H]1CN([C@H](C)CO)C(=O)c2cccc(NC(=O)C3CCCCC3)c2O[C@@H]1CN(C)S(C)(=O)=O	i
C[C@@H]1CN([C@@H](C)CO)C(=O)Cc2cc(NC(=O)c3ccncc3)ccc2O[C@@H]1CN(C)S(=O)(=O)c1cn(C)cn1	i
O=S(=O)(c1ccc(F)cc1)N1CCCCN2[C@H](C1)[C@H](c1ccc(-c3cncnc3)cc1)[C@@H]2CO	i
C[C@H]1CN([C@@H](C)CO)C(=O)Cc2cc(NC(=O)Nc3ccc(F)cc3)ccc2O[C@@H]1CN(C)C(=O)Nc1ccccc1	i
C[C@@H]1C=CCCO[C@]12C(=O)N(Cc1ccc(F)cc1)c1ccccc12	i
C[C@H](CO)N1C[C@H](C)[C@H](CN(C)S(=O)(=O)c2ccc(F)cc2)Oc2c(NC(=O)Nc3ccc(F)cc3)cccc2C1=O	i
C[C@@H]1CN([C@@H](C)CO)S(=O)(=O)c2ccc(C3=CCCCC3)cc2O[C@@H]1CN(C)C(=O)Cc1cccnc1	i
C[C@@H]1CN([C@H](C)CO)C(=O)c2cc(NC(=O)CCCN(C)C)ccc2O[C@@H](C)CCCCO[C@H]1CN(C)S(=O)(=O)c1ccc(F)cc1	i
CCCNC(=O)N(C)C[C@@H]1Oc2ncc(C#C[C@H](C)O)cc2C(=O)N([C@@H](C)CO)C[C@@H]1C	i
COc1cc2c(cc1OC)CN(C(=O)[C@H]1[C@@H]3C(=O)O[C@@H](c4ccccc4)[C@@H](c4ccccc4)N3[C@@H](c3ccccc3OCCO)[C@]13C(=O)Nc1ccccc13)CC2	i
CCc1cnc(N2[C@@H](C#N)[C@H](c3ccc(C#Cc4ccccc4F)cc3)[C@@H]2CO)s1	i
CC(C)CC#Cc1cnc2c(c1)C(=O)N([C@@H](C)CO)C[C@@H](C)[C@H](CN(C)C(=O)c1ccc(F)cc1)O2	i
CNC[C@H]1Oc2cc(C#CC3(O)CCCC3)ccc2S(=O)(=O)N([C@H](C)CO)C[C@H]1C	i
N#Cc1cccc(-c2ccc3c(c2)[C@@H]2[C@@H](CCN2C(=O)c2ccncc2)[C@H](CO)N3)c1	i
O=C(NCC[C@H]1CC[C@H](NS(=O)(=O)Cc2ccccc2)[C@H](CO)O1)C1CCC1	i
CCCC(=O)Nc1ccc2c(c1)OC[C@H](C)N(C(=O)CC1CC1)C[C@H](C)[C@H](OC)CN(C)C2=O	i
COc1ccc2c3c(n(C)c2c1)[C@H](CO)N(C(=O)NC(C)C)CC31CN(Cc2nccs2)C1	i
C[C@@H]1CN([C@@H](C)CO)C(=O)c2cc(-c3cccnc3)cnc2O[C@H]1CN(C)C(=O)Nc1ccccc1	i
C[C@@H]1CN([C@@H](C)CO)C(=O)c2cccc(NS(=O)(=O)c3ccc(F)cc3)c2O[C@H]1CN(C)CC1CC1	i
O=S(=O)(c1ccccc1)N1CCCCN2[C@@H](CO)[C@H](c3ccc(C#Cc4ccccc4)cc3)[C@@H]2C1	i
CCCNC(=O)C[C@H]1CC[C@H]2[C@H](COc3ccc(NC(=O)CC)cc3C(=O)N2C)O1	i
CC(C)CC#Cc1ccc2c(c1)O[C@@H](CN(C)Cc1ccccn1)[C@H](C)CN([C@H](C)CO)S2(=O)=O	i
C[C@H]1CCCCO[C@@H](CN(C)C(=O)C2CCCCC2)[C@@H](C)CN([C@@H](C)CO)C(=O)c2cc(NS(=O)(=O)c3ccccc3)ccc2O1	i
COc1ccc(NC(=O)Nc2ccc3c(c2)C(=O)N([C@@H](C)CO)C[C@@H](C)[C@@H](CN(C)S(=O)(=O)c2cn(C)cn2)OCCCC[C@@H](C)O3)cc1	i
CC(C)c1cn(CC[C@H]2CC[C@H](N)[C@@H](CO)O2)nn1	i
CC(C)C#Cc1ccc([C@@H]2[C@H]3CN(S(=O)(=O)Cc4ccccc4)CCCCN3[C@H]2CO)cc1	i
Cn1cnc(S(=O)(=O)N2C[C@H](O)COC[C@H]3O[C@H](CC(=O)NCc4cc(F)cc(F)c4)CC[C@@H]32)c1	i
C[C@@H]1CN([C@@H](C)CO)S(=O)(=O)c2ccc(-c3ccccc3)cc2O[C@H]1CN(C)Cc1ccccn1	i
C[C@@H]1CN([C@@H](C)CO)C(=O)c2cc(C#C[C@@H](C)O)cnc2O[C@H]1CN(C)CC1CCCCC1	i
CO[C@H]1CN(C)C(=O)c2ccc(NC(=O)C3CCCCC3)cc2OC[C@@H](C)N(Cc2cccnc2)C[C@@H]1C	i
C[C@@H]1CN([C@@H](C)CO)C(=O)c2cc(/C=C/c3ccccc3)cnc2O[C@H]1CN(C)Cc1ccccc1	i
C[C@@H]1CN([C@H](C)CO)C(=O)c2cccc(NC(=O)c3ccc(-c4nccs4)cc3)c2O[C@@H]1CN(C)S(C)(=O)=O	i
C/C=C/c1cnc2c(c1)C(=O)N([C@H](C)CO)C[C@H](C)[C@H](CN(C)S(=O)(=O)c1ccc(C)cc1)O2	i
CO[C@H]1CN(C)C(=O)c2ccc(NC(=O)C3CC3)cc2OC[C@@H](C)N(C(=O)c2cnccn2)C[C@@H]1C	i
CNC[C@@H]1Oc2ncc(/C=C/c3ccccc3)cc2C(=O)N([C@@H](C)CO)C[C@@H]1C	i
C[C@@H]1CN([C@H](C)CO)S(=O)(=O)c2ccc(C3=CCCCC3)cc2O[C@H]1CN(C)C(=O)Cc1ccccc1	i
O=C(COC(=O)c1ccc(O)cc1)Nc1cc(S(=O)(=O)N2CCOCC2)ccc1N1CCOCC1	i
C[C@H]1CN([C@@H](C)CO)C(=O)c2cccc(NC(=O)Nc3ccc4c(c3)OCO4)c2O[C@H]1CN(C)C	i
CCCNC(=O)N(C)C[C@H]1Oc2ncc(-c3ccccc3)cc2C(=O)N([C@H](C)CO)C[C@H]1C	i
CC(=O)N1CCCCN2[C@@H](CO)[C@@H](c3ccc(Br)cc3)[C@@H]2C1	i
COc1ccc(NC(=O)N(C)C[C@H]2Oc3ccc(NC(=O)Nc4ccc5c(c4)OCO5)cc3C(=O)N([C@@H](C)CO)C[C@@H]2C)cc1	i
Cc1cccc(-c2ccc(C3[C@@H]4CNC[C@H]3N4)cc2)c1 (stereo partly specified)	i
COc1ccc(NC(=O)N2C[C@@H](O)COC[C@H]3O[C@@H](CC(=O)N4CCN(C)CC4)CC[C@@H]32)cc1	i
CC(=O)N[C@H]1CC[C@H](CCNC(=O)C2CC2)O[C@@H]1CO	i
CCCNC(=O)N1C[C@@H](C)[C@@H](OC)CN(C)C(=O)c2cc(NC(C)=O)ccc2OC[C@@H]1C	i
C[C@H]1CN([C@@H](C)CO)C(=O)c2cccc(NC(=O)CCCCCC(=O)Nc3ccccc3N)c2O[C@H]1CN(C)S(=O)(=O)c1ccc(F)cc1	i
Cc1ccc(S(=O)(=O)N(C)C[C@H]2Oc3ccc(NC(=O)CCN4CCOCC4)cc3C(=O)N([C@H](C)CO)C[C@@H]2C)cc1	i
CCNC(=O)[C@@H]1[C@@H](CO)[C@@H]2Cn3c(ccc(-c4cccc(OC)c4)c3=O)[C@@H]2N1Cc1nccs1	i
COc1ccc(NC(=O)N(C)C[C@@H]2Oc3ccc(NC(=O)Cc4cn(C)c5ccccc45)cc3C(=O)N([C@@H](C)CO)C[C@@H]2C)cc1	i

Fetched by compound from the list above, 6 records:
SMILES	FGF22 binding
Cc1ccc(S(=O)(=O)N(C)C[C@H]2Oc3ccc(NC(=O)CCN4CCOCC4)cc3C(=O)N([C@H](C)CO)C[C@@H]2C)cc1	i
C[C@H]1CN([C@@H](C)CO)C(=O)c2cccc(NC(=O)CCCCCC(=O)Nc3ccccc3N)c2O[C@H]1CN(C)S(=O)(=O)c1ccc(F)cc1	i
CCCNC(=O)N(C)C[C@H]1Oc2ncc(-c3ccccc3)cc2C(=O)N([C@H](C)CO)C[C@H]1C	i
CC(=O)N[C@H]1CC[C@H](CCNC(=O)C2CC2)O[C@@H]1CO	i
COc1ccc(NC(=O)N2C[C@@H](O)COC[C@H]3O[C@@H](CC(=O)N4CCN(C)CC4)CC[C@@H]32)cc1	i
CCCNC(=O)N1C[C@@H](C)[C@@H](OC)CN(C)C(=O)c2cc(NC(C)=O)ccc2OC[C@@H]1C	i

Further results follow:
SMILES	FGF22 binding
Cc1noc(C)c1NC(=O)Nc1ccc2c(c1)C(=O)N([C@@H](C)CO)C[C@@H](C)[C@H](CN(C)C(=O)Nc1c(C)noc1C)OCCCC[C@H](C)O2	i
C[C@H](CO)N1C[C@H](C)[C@@H](CN(C)Cc2ccc(C(F)(F)F)cc2)Oc2c(NS(=O)(=O)c3ccccc3)cccc2C1=O	i
C[C@@H]1CCCCO[C@H](CN(C)C(=O)Nc2ccc(C(F)(F)F)cc2)[C@@H](C)CN([C@H](C)CO)C(=O)c2cc(NS(C)(=O)=O)ccc2O1	i
O=C(C[C@H]1C[C@H]2c3cc(NC(=O)C4CCC4)ccc3O[C@H]2[C@@H](CO)O1)NCc1ccc(Cl)cc1	i
C[C@@H]1CN([C@@H](C)CO)C(=O)c2cccc(NC(=O)C3CC3)c2O[C@@H]1CN(C)C(=O)NC1CCCCC1	i
C[C@@H]1CN([C@H](C)CO)C(=O)c2cccc(NC(=O)Nc3ccc(F)cc3)c2O[C@@H]1CN(C)Cc1ccc(C(F)(F)F)cc1	i
C[C@H]1CN([C@@H](C)CO)C(=O)Cc2cc(N(C)C)ccc2O[C@@H]1CN(C)C(=O)NC1CCCCC1	i
O=C(Nc1ccc(Cl)cc1)N[C@@H]1CC[C@H](CCn2cc(C3(O)CCCC3)nn2)O[C@@H]1CO	i
C[C@@H]1CN([C@@H](C)CO)C(=O)Cc2cc(NC(=O)C3CC3)ccc2O[C@@H]1CN(C)S(=O)(=O)c1ccc(F)cc1	i
CCCNC(=O)N1[C@H](CO)[C@@H](c2ccccc2-c2ccc(F)cc2)[C@@H]1C#N	i
